TRPV1 PAM: HTS Assay for Compounds that Act as Potentiators of the Vanilloid Receptor 1; potentiation, % at 8.33 µM; AID 540277, 2011; 320,000 compounds, 0.02% hits; TRPV1-expressing cells, Fluo-8 calcium influx, capsaicin EC20 potentiation; host cell line not named in the record; control for the full effect not named in the record; active means potentiation above 80%; inconclusive means 30% to 80%; inactive means below 30%; note: 0% is about no effect
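TRPV1-expressing cells were cultured overnight at 35.5C and loaded with Fluo-8 calcium dye for 40 to 90 min at room temperature. After a 10 s baseline, compound was added and calcium influx was read kinetically for 3 min (ex 480/em 520 nm).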
Sfp inh: qHTS Assay for Inhibitors of Bacillus subtilis Sfp phosphopantetheinyl transferase (PPTase). Biochemical Sfp PPTase activity, qHTS. 4'-phosphopantetheinyl transferase ffp (Bacillus subtilis), Q9F4F7. Potency, µM, for inactives: max response, negative = inhibition, most hits filed as inhibitors. 310,000 compounds, 3.5% hits. AID 1490, 2009; active = well fitted inhibition curve with a large enough effect; inconclusive = small, poorly fitted or top-dose-only effect, or another doubt; inactive = no such curve, though single readings can be large or run the other way;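 note: the enzyme is Sfp with the accession as filed and its product quenches rhodamine fluorescence; potency is the fitted concentration of half-maximal effect; 0% = enzyme reaction without inhibitor and -100% = no enzyme wells; top concentration of the series not given in the record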
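Step 1, compound plus 15 nM Sfp-PPTase, 15 min, room temperature. Step 2, add rhodamine-CoA (5 uM) and BHQ-2-YbbR (12.5 uM). Step 3, read 525/598 nm fluorescence at 0 and 30 min.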
PINK1 expr mod: A Quantitative High throughput Screen to Identify Chemical Modulators of PINK1 Expression | PINK1 immunofluorescence, high-content cytometry, 24 h | Potency, µM (titrated, usually from 76.6 µM), without a hit: at the top dose activation (PINK1 increase), hits mostly activators | 410,000 compounds, 0.2% hits; active = well fitted activation curve with a large enough effect; inconclusive = small, poorly fitted or top-dose-only effect; inactive = flat fitted curve, though single readings scatter; cell line not stated here;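 note: potency is the fitted concentration of half-maximal effect; % of control where 0% means no effect; nearly all actives have a fitted effect of over 65% in size; a mitochondrial uncoupler was the plate control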
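Cells are seeded, rested 12 hours, then given compound at five concentrations or DMSO for 24 hours. After fixation, blocking and antibody staining, PINK1 amount and mitochondrial localization are scored; CCCP serves as control.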
D2 PAM: Beta-Arrestin HTS for Positive Allosteric Modulators of the Human D2 Dopamine Receptor: Potentiators. potentiation, % (concentration not given with the values). 360,000 compounds, 0.23% hits. D(2) dopamine receptor (Homo sapiens), P14416. AID 624464, 2012. DiscoveRx D2 beta-arrestin cells, luminescence, 90 min; 100% = 57 uM dopamine signal; active = potentiation of 50% or more; inconclusive = 30% to 50%; inactive = 30% or less;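 note: tested on top of an EC20 dose of dopamine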
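PathHunter D2 cells, attached overnight at 37 deg C, received compound in DMSO plus dopamine at EC20 (50 nM final) for 90 min at 37 deg C. Beta-arrestin recruitment was read as luminescence after 1 h with detection reagent at ambient temperature.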
D2 ag: Beta-Arrestin HTS for Positive Allosteric Modulators of the Human D2 Dopamine Receptor: Agonists | 360,000 compounds, 0.084% hits | DiscoveRx PathHunter D2 beta-arrestin, luminescence, 90 min; 100% = 57 uM dopamine signal | AID 624465, 2012 | activation, % (test concentration not listed) | D(2) dopamine receptor (Homo sapiens), P14416; in the data active = activation above about 40%; inconclusive = about 15% to 40%; inactive = below about 15%; note: compound concentration not given in the record; the text of the record calls up to 30% inactive
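DiscoveRx PathHunter D2 beta-arrestin cells (2,100/well) attached overnight, then compound-stimulated 90 min at 37 C in HBSS/10 mM HEPES/0.1% Tween-20 buffer; beta-galactosidase complementation read by luminescence after 1 h at ambient temperature. Dopamine 57 uM final (EC100) as control.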
CtBP-E1A inh: qHTS Assay for Inhibitors of the CtBP/E1A Interaction; CtBP / adenovirus E1A interaction (AlphaScreen); AlphaScreen GST-E1A/His-CtBP binding, 1536-well; stronger effect = lower value; control for the full effect not named in the record; activity change, % (concentration not given with the values); 340,000 compounds, 0.49% hits; in the data active means activity change below about -65%; inconclusive means about -30% to -65%; inactive means above about -30%; note: % is set by controls: 0 for no effect and ±100 for the full control effect
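AlphaScreen with 125 nM GST-E1A and 125 nM His-CtBP (5X stocks) in Tris pH 8.0, 300 mM NaCl, BSA, Tween 20, TCEP. Compounds preincubated 2 h at 37 deg C, then glutathione donor/nickel acceptor beads added for 1 h at 37 deg C in dark.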
Six1-Eya2 inh: qHTS Assay for Inhibitors of the Six1/Eya2 Interaction. AlphaScreen GST-Six1/His-Eya2 binding, biochemical; stronger effect = lower value; control for the full effect not named in the record. activity change, % (no concentration beside the values). Homeobox protein SIX1 (Homo sapiens) + Protein phosphatase EYA2 (Homo sapiens), …. AID 651725, 2012. 360,000 compounds, 0.56% hits; in the data active = activity change below about -65%; inconclusive = about -30% to -65%; inactive = above about -30%; note: % is set by controls: 0 for no effect and ±100 for the full control effect
Target sequence (O00167 whole entry, looked up): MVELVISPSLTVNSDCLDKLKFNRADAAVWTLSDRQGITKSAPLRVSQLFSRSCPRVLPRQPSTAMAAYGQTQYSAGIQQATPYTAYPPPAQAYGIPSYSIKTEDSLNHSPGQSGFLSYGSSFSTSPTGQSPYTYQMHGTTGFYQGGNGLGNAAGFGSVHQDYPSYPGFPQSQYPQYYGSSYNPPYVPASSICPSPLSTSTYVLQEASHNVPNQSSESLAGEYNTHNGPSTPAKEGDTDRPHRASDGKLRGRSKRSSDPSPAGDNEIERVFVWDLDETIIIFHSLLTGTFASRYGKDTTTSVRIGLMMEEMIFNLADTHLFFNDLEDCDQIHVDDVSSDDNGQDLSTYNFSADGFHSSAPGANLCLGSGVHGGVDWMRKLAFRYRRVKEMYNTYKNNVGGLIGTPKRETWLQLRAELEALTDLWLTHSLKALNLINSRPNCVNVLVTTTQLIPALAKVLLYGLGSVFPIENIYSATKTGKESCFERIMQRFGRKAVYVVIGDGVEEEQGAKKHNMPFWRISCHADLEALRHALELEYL
Target sequence (Q15475 whole entry, looked up): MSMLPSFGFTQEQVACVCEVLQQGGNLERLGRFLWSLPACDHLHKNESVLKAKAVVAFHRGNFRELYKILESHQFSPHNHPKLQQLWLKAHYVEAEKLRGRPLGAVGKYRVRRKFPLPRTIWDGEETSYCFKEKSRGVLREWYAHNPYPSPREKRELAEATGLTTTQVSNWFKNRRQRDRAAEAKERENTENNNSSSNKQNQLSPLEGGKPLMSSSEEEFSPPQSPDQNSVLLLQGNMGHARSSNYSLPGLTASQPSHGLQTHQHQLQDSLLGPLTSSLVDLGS
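GST-Six1 + His-Eya2 (5X stock: 250/500 nM); Tris pH 8.0, 300 mM NaCl, 0.05% BSA, 0.02% Tween 20; GSH donor/Ni acceptor beads; 1 h 37 °C dark; AlphaScreen readout.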
The depositor's hits bear a star; ? = inconclusive; . = not tested or not shown; [ ] = remark or other dose.

The line under a structure holds: TRPV1 PAM | Sfp inh | PINK1 expr mod | D2 PAM | D2 ag | CtBP-E1A inh | Six1-Eya2 inh
> COc1ccc(-c2ccnc3nc(-n4cccc4)nn23)cc1
 : -2 | 5% | -2.2%[38.3 µM] | 0 | -0.5 | -3 | -3
> CCOC(=O)C1CCCN(C(=O)c2ccccc2Oc2ccccc2)C1 (stereo unspecified)
 : -27 | 16% | 0.6% | 30 | 12 | 2 | 8
> CCCN(CC(=O)Nc1ccccc1OC)C(=O)c1ccc(S(=O)(=O)NCc2ccco2)cc1
 : 9 | . | 0.4% | -3 | -8.3 | -8 | 2
> COc1ccc(-c2cn3cc(Br)cnc3n2)cc1
 : -13 | 15% | 4.2% | 4 | -0.2 | -9 | -5
> CC(C)C[C@@H](CN1CCC[C@H]1CN1C(=O)C(=O)NC[C@@H]1Cc1ccc(O)cc1)N1C[C@H](Cc2ccccc2)N(CCc2ccccc2)C(=O)C1=O
 : . | . | 1.0% | . | . | 7 | 1
> O=C(COc1ccccc1)N1CCN(C(=O)COc2ccccc2)CC1
 : 11 | 9% | 1.5% | -4 | -1.4 | -9 | 1
> CC1(C(=O)Nc2cccc3cccnc23)CCN1Cc1csc2ccccc12 (stereo unspecified)
 : . | . | 1.0% | -12 | -5.6 | -11 | -13
> Cc1ccc(CNC(=O)c2cc3c(=O)n4ccccc4nc3n(Cc3ccco3)c2=N)cc1
 : -9 | ? | 1.3% | -7 | -2.3 | 8 | 0
> Cc1cc(N2CCOCC2)nc2ccccc12
 : 20 | 19% | 0.9% | -17 | -1.3 | 0 | 10
> CC(Oc1ccc(F)cc1)C(=O)N(CCC1=CCCCC1)c1c(N)n(Cc2ccccc2)c(=O)[nH]c1=O (stereo unspecified)
 : 1 | . | 1.0% | -13 | 2.3 | 2 | 1
> O=C(O)c1ccc(CNCc2ccc(F)cc2)cc1
 : 2 | -16% | 4.0% | -2 | -6.0 | 1 | 11
> CC1CCCC(C)N1S(=O)(=O)c1ccc(NC(=O)CCn2cnc3ccccc3c2=O)cc1 (stereo unspecified)
 : -9 | 34%[activator] | 2.0%[38.3 µM] | -6 | 1.2 | -3 | 3
> O=C(NCc1ccc(F)cc1)c1ccncc1
 : 0 | 14% | -0.4% | 1 | 6.0 | . | 3
> CCN(CC)S(=O)(=O)c1ccc(N2CCN(C)CC2)c(NC(=O)CN2C(=O)NC3(CCCCC3)C2=O)c1
 : . | . | 0.4% | -9 | -3.3 | . | 5
> Cc1ccc(S(=O)(=O)N2CCNC(=O)CC2)cc1
 : 6 | 15% | -0.7% | -3 | -5.2 | 5 | 9
> O=C(COC(=O)c1cccnc1Cl)Nc1ccc(N2CCOCC2)cc1
 : . | . | 0.3% | -11 | -3.0 | 1 | -1
> CC(C)(C)n1nc2c(c1NC(=O)c1ccc(S(=O)(=O)N3CCCC3)cc1)CSC2
 : -2 | -16% | -2.5% | 2 | -2.6 | -1 | -8
> CCOc1ccc(NC(=O)Cc2cccc3ccccc23)c([N+](=O)[O-])c1
 : 7 | 6% | 1.4% | 14 | 6.0 | -30 | ?
> C=CCOC(=O)C1=C[C@H](c2ccc3c(c2)OCO3)C[C@H](OCCCCO)O1
 : . | . | 1.7% | 4 | 2.1 | . | -12
> COc1cc(CC(=O)OCC(=O)N2CC(C)CC(C)C2)cc(OC)c1OC (stereo unspecified)
 : 10 | 11% | 0.5% | -3 | -1.2 | -2 | -10
> Cc1ccc2c(c1)nnn2C1CCN(S(=O)(=O)c2ccc(C(=O)O)cc2)CC1
 : 7 | -4% | 1.0% | 6 | 1.9 | -7 | 1
> Cc1ccc(N=C2CCCN2Cc2ccccc2)c(C#N)c1
 : -1 | 5% | 1.1% | -10 | -2.8 | 16 | 7
> COc1ccc2c(-c3ccccc3)cc(=O)[nH]c2c1
 : -6 | 9% | 4.3%[38.3 µM] | -7 | -2.7 | 0 | 0
> O=C(CNS(=O)(=O)c1ccc(Br)s1)NC1CCCc2ccccc21 (stereo unspecified)
 : -8 | 16% | 0.0% | -7 | -2.6 | . | -1
> CN1CCN(C2=C(Cl)C(=O)N(C3CCCCC3)C2=O)CC1
 : 21 | -1% | -6.2%[38.3 µM] | -12 | -2.0 | 3 | -3
> O=C(CNC(=O)c1ccc(Cl)cc1)OCC(=O)c1ccc2c(c1)OCCO2
 : 6 | 23% | -0.1% | -11 | -1.8 | 6 | 7
> CC1(C)Cc2c(sc3nc(N/N=C/c4ccccc4)[nH]c(=O)c23)CO1
 : 0 | -12% | -0.1% | -8 | 1.3 | 3 | 1
> CC1(C(=O)O)CCCN1C(=O)c1cccc(C(F)(F)F)c1 (stereo unspecified)
 : . | . | -0.4% | -5 | -4.5 | -6 | 10

Some entries already given, reduced to Sfp inh.
| molecule | Sfp inh |
| --- | --- |
| O=C(O)c1ccc(CNCc2ccc(F)cc2)cc1 | -16% |
| CC1CCCC(C)N1S(=O)(=O)c1ccc(NC(=O)CCn2cnc3ccccc3c2=O)cc1 (stereo unspecified) | 34%[activator] |

3 compounds out of the list, ordered by heavy-atom count, low to high.
The line under a structure holds: TRPV1 PAM | Sfp inh | PINK1 expr mod | D2 PAM | D2 ag | CtBP-E1A inh | Six1-Eya2 inh
> Cc1cc(N2CCOCC2)nc2ccccc12
 : 20 | 19% | 0.9% | -17 | -1.3 | 0 | 10
> COc1ccc(-c2ccnc3nc(-n4cccc4)nn23)cc1
 : -2 | 5% | -2.2%[38.3 µM] | 0 | -0.5 | -3 | -3
> O=C(COc1ccccc1)N1CCN(C(=O)COc2ccccc2)CC1
 : 11 | 9% | 1.5% | -4 | -1.4 | -9 | 1

From PubChem BioAssay
